PABP FP inh: PABP-poly(A) binding inhibition. P11940. PABP-poly(A) RNA binding, fluorescence polarization. inhibition, % at 35 µM. 290,000 compounds, 1% hits. AID 2014;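 active = 50% or more with normal probe brightness, or confirmed in later tests; inconclusive = above 50% with abnormal brightness, or retests that disagree; inactive = below 50% or failed in later tests; about a fifth of its hits are not listed in these tables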;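 note: calls also rest on retests at 20 µM and on dose response follow-up; controls were probe without protein and protein plus probe with vehicle; some compounds called inactive have numbers as strong as hits; many hits fall short of the cut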
Rce1 inh: inhibitors of yeast Ras-converting enzyme. Q03530. yeast membranes, quenched prenylated peptide cleavage fluorescence. calls only. 290,000 compounds, 0.27% hits. AID 2563;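 active = fall in fluorescence gain of 50% or more versus controls, with final raw signal at or below 3038400; inconclusive = same 50% fall but final raw signal above 3038400; inactive = fall in fluorescence gain under 50%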;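 note: plate controls were neutral control wells for no effect and wells lacking membranes for full effect; tested at 10 µM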
Target sequence (Q03530 whole entry, looked up): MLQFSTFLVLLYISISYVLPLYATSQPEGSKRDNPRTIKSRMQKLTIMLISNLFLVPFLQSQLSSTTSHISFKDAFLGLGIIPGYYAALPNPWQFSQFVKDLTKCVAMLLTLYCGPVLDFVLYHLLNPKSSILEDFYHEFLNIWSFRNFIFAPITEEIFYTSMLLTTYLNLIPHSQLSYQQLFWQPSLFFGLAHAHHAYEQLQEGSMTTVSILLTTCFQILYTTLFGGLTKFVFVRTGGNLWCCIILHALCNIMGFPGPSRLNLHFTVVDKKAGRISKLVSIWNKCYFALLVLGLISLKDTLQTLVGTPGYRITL
Yeast UUG start: modulators of start codon recognition fidelity in yeast. AID 602363. 350,000 compounds, 0.13% hits. activity score, % at 18.7 µM. S. cerevisiae UUG-firefly luciferase reporter, luminescence/redox ratio;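 active = replicate mean at a twofold rise or more, about +100% in these data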;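 note: firefly luciferase made from a UUG start codon reports start codon fidelity; reporter light over untreated wells divided by growth signal over untreated wells; some hits fall short of that in this replicate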
CSC inhib: cancer stem cell inhibition; cancer stem cell-like cells viability, luminescence; AID 2717; 300,000 compounds, 1.1% hits; inhibition, % at 7.5 µM;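 active = mean at 75% or more and at least half the replicates too; inconclusive = mean and replicates disagree; tested in HMLE shEcad cells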;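 note: 0% = median of negative and 100% = median of positive control wells; the first replicate is given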
MT1-MMP act inh: MT1-MMP (human) activation inhibition; 360,000 compounds, 0.061% hits; P50281; GFP/RFP ratio change, % at 20 µM; HT1080 RFP-PRO-GFP cells, GFP/RFP ratio fluorescence, overnight; percent of plate control window, DMSO zero;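 active = GFP/RFP ratio change of at least 30% with cell ATP level not reduced by more than half and red fluorescence within 50% of control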; note: strong numbers were not always called active
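Compound: 20 µM single dose, 1% DMSO / System: HT1080 RFP-PRO-GFP cells / Controls: DMSO and RFP-L50D-GFP cell wells / Read-out basis: GFP/RFP fluorescence ratio / Schedule: overnight compound exposure at 37 °C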
eIF4H FP inh: inhibitors of RNA binding by human eIF4H | Q15056 | eIF4H fluorescence polarization binding assay | inhibition, % at 35 µM | 290,000 compounds, 0.94% hits | AID 2012;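 active = 50% or more with normal probe brightness, or confirmed in later tests; inconclusive = above 50% with abnormal brightness, or retests that disagree; inactive = below 50% or failed in later tests; about a fifth of its hits are not listed in these tables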;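 note: calls also rest on retests at 20 µM and on dose response follow-up; 0% = protein and probe with vehicle and 100% = probe without protein; strong numbers were not always called active; many hits fall short of the cut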
HIV Env fusion: HIV envelope-mediated fusion inhibition | HeLa-JRFL Env/CEM21 cell fusion, luciferase | inhibition, % at 12.3 µM | 360,000 compounds, 1.1% hits | AID 651610;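 active = mean replicate inhibition score of at least 50 and every replicate individually at or above 50; inconclusive = only one of the two criteria met; inactive = mean below 50 and not all replicates reaching 50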;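 note: 0% = plate neutral controls and 100% = maraviroc near 300 nM; one replicate is shown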
eIF4H FP inh retest: second read-out of eIF4H FP inh, no call of its own (marks repeat the call); inhibition, %; compound at 20 µM; confirmation average;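 mean of two retest wells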
PABP FP inh retest: second read-out of PABP FP inh, no call of its own (marks repeat the call); inhibition, %; compound at 20 µM; confirmation repeats;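 mean of two retest wells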
MT1-MMP act inh RFP: also measured in MT1-MMP act inh; calls as there; RFP signal change, %; measured here: RFP expression control read;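 0 = vehicle wells; hits needed this value within 50% of zero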
* = called active by the depositor; i = inactive; u = inconclusive; x = no result given.

SMILES | PABP FP inh | Rce1 inh | Yeast UUG start | CSC inhib | MT1-MMP act inh | MT1-MMP act inh RFP | eIF4H FP inh | HIV Env fusion | others
O=C(c1ccco1)N(CCCN1CCOCC1)c1nc(-c2ccc(F)cc2)cs1 | 6.9 | i | 0.7 | 1.4 | 4.3 | -7.2 | 3.6 | 35.8
CCc1ccccc1NC(=O)Nc1cccn(Cc2ccc(F)cc2)c1=O | -5.8 | i | x | x | -27.6 | -21.6 | -0.9 | -0.2
CC(C)CN1CCN(Cc2cccc3ncccc23)CC1CCO (stereo not given) | -3.5 | i | x | -14.0 | 3.6 | 2.2 | 3.2 | 0.8
COc1ccc(CCNC(=O)CCC(=O)n2ncc3cc(C)ccc32)cc1OC | 9.0 | i | -14.7 | 9.4 | 0.1 | 1.8 | -7.7 | 3.8
CCOc1cc(N2CCOCC2)c(OCC)cc1NC(=O)C(C)(C)C | 2.1 | x | x | -13.8 | 1.7 | 4.3 | 0.7 | 21.8
O=C(O)CSc1cc(C(=O)c2cc(F)ccc2O)cn2c(=O)c3c(-c4ccccc4)csc3nc12 | 30.4 | i | -3.5 | 47.1 | 16.9 | 19.8 | 50.4* | -0.9 | eIF4H FP inh retest=54.6*;PABP FP inh retest=27.4
COc1ccc2cc3cc(C(=O)NCCCN4CCOCC4)oc3nc2c1 | -13.6 | u | -3.4 | 12.5 | 17.7 | -1.0 | -5.6 | 18.2
Cc1ccc(/C=C2/Sc3ccccc3N(CC(=O)NCC3CCCO3)C2=O)cc1 (stereo not given) | -0.6 | i | -18.1 | -5.1 | 5.2 | 0.9 | -6.3 | x
NC(=O)c1nc(N2CCOCC2)nc(N2CCOCC2)n1 | 1.3 | i | -13.3 | -12.9 | 4.9 | 2.1 | 7.1 | -22.8
O=C(Nc1ccc2ccccc2c1)c1cnccn1 | 9.7 | i | -5.1 | 1.5 | -2.0 | 5.0 | 2.0 | -222.4

Retrieved by compound from above:
SMILES | PABP FP inh | Rce1 inh | Yeast UUG start | CSC inhib | MT1-MMP act inh | MT1-MMP act inh RFP | eIF4H FP inh | HIV Env fusion | others
O=C(Nc1ccc2ccccc2c1)c1cnccn1 | 9.7 | i | -5.1 | 1.5 | -2.0 | 5.0 | 2.0 | -222.4
Cc1ccc(/C=C2/Sc3ccccc3N(CC(=O)NCC3CCCO3)C2=O)cc1 (stereo not given) | -0.6 | i | -18.1 | -5.1 | 5.2 | 0.9 | -6.3 | x
CCc1ccccc1NC(=O)Nc1cccn(Cc2ccc(F)cc2)c1=O | -5.8 | i | x | x | -27.6 | -21.6 | -0.9 | -0.2

New compounds follow.
SMILES | PABP FP inh | Rce1 inh | Yeast UUG start | CSC inhib | MT1-MMP act inh | MT1-MMP act inh RFP | eIF4H FP inh | HIV Env fusion | others
CN(Cc1ccc(N(C)C)cc1)C(=O)c1cc2ccccc2o1 | 9.6 | i | -11.1 | 11.4 | 1.6 | 3.3 | 14.4 | 2.6
O=C(Nc1cccc([N+](=O)[O-])c1)NC1CCCCCCC1 | -10.0 | i | 1.1 | 24.5 | -0.6 | 0.2 | -8.3 | -7.4
COc1cccc(CNC(=O)CCCNC(=O)c2ccc(Cl)cc2)c1 | -6.9 | i | -11.6 | 5.9 | 1.9 | 3.0 | -14.5 | -42.3
O=C(CCCCCn1c(=S)[nH]c2ccccc2c1=O)N1CCOCC1 | -5.6 | i | x | -20.1 | -1.1 | 1.1 | -7.5 | -40.7
COCCCC1CCN(C(=O)C2CCC(=O)N(Cc3ccccc3F)C2)CC1 (stereo not given) | 2.3 | i | -14.5 | -9.9 | -0.6 | 1.2 | -7.4 | 17.2
CCCN(CCC)Cc1c(C(=O)OCC)nnn1-c1nonc1N | -11.8 | i | 0.0 | -17.3 | 1.2 | 2.2 | -6.7 | x
O=C(NCCc1ccc2c(c1)OCO2)C1CCN(S(=O)(=O)c2ccc(Cl)cc2)CC1 | -4.3 | x | -12.0 | -2.8 | -1.6 | -5.4 | 9.7 | x
COc1ccccc1NC(=O)CCCc1nnc2n(C)c(=O)c3sccc3n12 | -4.3 | i | -4.0 | -28.8 | 0.6 | 0.3 | -8.7 | -3.3
COc1ccccc1C(=O)COC(=O)C1(C)CC1(Cl)Cl (stereo not given) | x | x | -14.8 | -11.6 | -2.2 | -0.6 | x | 7.0
CCOC(=O)c1c2n(c3ccc(OC(C)=O)cc13)CCC2 | -9.0 | i | -7.9 | -0.2 | 0.8 | 1.4 | -1.5 | -28.1
O=Cc1c(-c2ccc(Cl)cc2)oc2ccc(O)cc12 | x | i | -29.1 | x | -2.5 | -2.2 | x | -49.1
Cc1ccc(-c2csc(NC(=O)CSc3nnc4c(n3)[nH]c3ccccc34)n2)cc1 | -7.9 | x | x | 35.6 | -1.6 | -8.2 | -2.6 | 22.6
CCOc1ccc(-c2cn(CCC#N)cn2)cc1 | -4.5 | i | -10.8 | x | -1.7 | 2.7 | -2.6 | -6.5
Cc1nn(CC2CC2)c(=O)n1-c1ccc(C(C)C)cc1 | -17.4 | i | -2.7 | -9.8 | -5.7 | -6.0 | -6.9 | 0.4
CNC(=S)N(CCc1c(C)[nH]c2ccc(OC)cc12)Cc1cccnc1 | -12.0 | i | x | 9.4 | 1.9 | 3.9 | 15.0 | 14.1
COc1ccccc1CCC(=O)Oc1ccccc1C#N | 2.4 | i | 5.3 | 3.8 | -2.7 | 4.5 | -8.1 | 8.4
C=CCOc1ccc(C2N3CC4(CC)CN2CC(CC)(C3)C4=O)cc1 (stereo not given) | -4.9 | i | -17.4 | 9.4 | 2.8 | -4.1 | -0.3 | x
COc1ccc(CCN(C)c2ccc(S(=O)(=O)N3CCCC3)cn2)cc1OC | -4.4 | i | -36.4 | 6.6 | -1.3 | -2.8 | -4.8 | 14.7
CC(C)OC(=O)c1ccc(NC(=S)NC(=O)c2cncc(Br)c2)cc1 | 0.1 | i | -7.3 | 1.8 | -6.9 | -7.1 | -1.9 | -1.7
CC1Cc2ccccc2N1C(=O)COC(=O)c1ccc([N+](=O)[O-])o1 (stereo not given) | x | x | 9.4 | 19.0 | 1.1 | 0.3 | x | 0.9
Oc1ccccc1C=Nc1ccccc1-c1nc2ccccc2[nH]1 | 58.4* | i | -7.7 | 8.0 | 10.6 | 2.7 | 5.7* | -111.1 | eIF4H FP inh retest=96.9*;PABP FP inh retest=79.0*
O=C(OCC(=O)c1c[nH]c2ccccc12)c1cccc(O)c1 | -0.5 | i | -15.2 | -0.4 | 1.8 | -1.8 | 1.7 | x
COCc1c(C#N)c(NCCc2ccccc2)nc(C)c1[N+](=O)[O-] | 14.0 | i | x | 22.8 | 1.2 | -2.1 | 16.3 | -37.0
CCN1C(=O)[C@H]2[C@H]3CN=C(SCc4ccc(OC)cc4)N3[C@@](CC)(C(=O)OC)[C@H]2C1=O | x | x | -11.0 | x | 3.8 | -0.7 | x | -9.9
Cc1ccc(N(CC(=O)NC2CCCC2)C(=O)c2c(C)noc2C)cc1C | -12.6 | i | -7.4 | -3.4 | -0.8 | 5.3 | -6.5 | -74.8
O=C(N/C=C/c1ccco1)NCc1ccccc1 | -3.4 | i | x | -9.1 | -5.9 | 0.2 | 66.1 | -11.1 | eIF4H FP inh retest=-9.0;PABP FP inh retest=6.7
Cc1nn(C(C)C)c(C)c1CN1CCC(C(=O)Nc2cccc(-c3cccc(F)c3)c2)CC1 | -0.3 | i | 16.8 | 30.5 | -2.2 | -2.7 | 10.3 | 1.1
CCOC(=O)C1CCN(C(=O)c2ccc(CNS(=O)(=O)c3ccc(C)cc3)cc2)CC1 | -7.1 | i | x | -4.1 | -1.1 | -0.7 | 4.3 | 5.1
Cn1c(SCC(=O)NC(C)(C)C)nnc1-c1cnccn1 | -3.6 | i | -17.3 | -10.8 | -1.7 | -0.4 | -8.9 | x
Cc1cc(N2CCN(C)CC2)nc2ccc(NC(=S)NCCN3CCc4ccccc4C3)cc12 | 2.2 | i | -19.1 | 11.4 | 2.2 | -4.7 | -5.6 | -2.1
COc1c(N2CCN(C(=S)NC3CC4CCC3C4)C(C)C2)c(F)cc2c(=O)c(C(=O)O)cn(C3CC3)c12 (stereo not given) | -12.1 | i | x | 23.0 | -17.2 | -18.0 | 27.5 | 17.3
Cc1ccc(NC(=S)N2CCN(S(C)(=O)=O)CC2)cc1Cl | 9.3 | i | -14.2 | -6.7 | 1.1 | 0.9 | -4.3 | 1.4
CCCCn1cnc2c(oc3ccccc32)c1=O | -2.1 | i | 9.8 | 11.7 | -1.2 | -0.9 | -5.5 | -11.9
CCOC(=O)CC1CCCCN1C(=O)c1ccc2oc(CCc3ccccc3)nc2c1 (stereo not given) | -1.3 | i | -8.3 | 47.8 | 0.6 | -6.6 | -10.3 | 3.2
Cc1ccc2nc(NCCc3ccccc3)c3nncn3c2c1 | -16.7 | i | -22.1 | x | 2.4 | 1.3 | 1.6 | 8.1
COc1ccc2c(=O)c(N3C(=O)c4ccccc4C3=O)c(C)oc2c1 | -10.4 | i | -20.0 | -9.4 | 1.6 | 3.1 | -3.9 | x
Cc1ccccc1NS(=O)(=O)c1ccc2oc(=O)ccc2c1 | 13.1 | i | -1.8 | -18.8 | -0.2 | -4.7 | -5.4 | 7.5
CC(=O)NC(c1ccc(F)c(F)c1)c1nc(-c2ccccc2C)cs1 (stereo not given) | x | x | -9.4 | x | -5.8 | -4.2 | x | 19.7
COc1ccc(NC(=O)c2nc(-n3nc(C)cc3C)ccc2Cl)cc1Cl | 3.9 | i | x | 2.9 | 1.7 | 1.6 | -8.0 | 27.7
Cc1ccc(C)c(CSC2=NN3CCCC(=O)N=C3S2)c1 | 7.3 | x | x | -3.2 | -2.6 | -5.1 | 8.5 | 10.9
Cc1ccccc1NC(=O)CN1CCN(C(=O)c2ccco2)CC1 | 2.8 | i | 6.7 | 5.2 | -1.2 | 0.4 | -16.1 | -4.8
Cn1cc(Cl)c(C(=O)Nc2nc3ccc(Cl)cc3s2)n1 | -5.5 | x | -22.4 | x | 3.0 | 1.9 | -11.6 | x
Cc1nn(CC(=O)Nc2ccc3c(c2)nc(CCN2CCCCC2)n3C)c(=O)c2ccccc12 | -5.1 | i | -12.4 | x | -13.3 | -11.5 | -1.6 | x
CCOc1ccc2c(c1)/C(=N/N1C(=O)c3ccccc3C1=O)C(=O)N2 | -6.4 | i | x | 4.3 | 2.5 | 4.4 | 6.8 | -9.8
Cc1ccc(C(C)C)c(OCCSc2nc3ccccc3n2CC(=O)O)c1 | 3.8 | i | -17.5 | 6.3 | 4.0 | 2.5 | -7.9 | 1.1
COCCNC(=O)C1(C)CCCN(C(=O)c2cccnc2SC)C1 (stereo not given) | x | x | -7.9 | x | 6.8 | 8.2 | x | -6.8
CC(CCc1ccccc1)NCc1ccncc1 (stereo not given) | 20.3 | i | -23.3 | -2.4 | 0.8 | 3.1 | -1.6 | 0.4
Cc1ccc(CN(C(=O)COc2ccc(Br)cc2)C2CCS(=O)(=O)C2)o1 (stereo not given) | -4.6 | i | 1.4 | 3.2 | 0.4 | 1.6 | -8.1 | 14.5
C=CCn1c(=S)[nH]c2scc(-c3ccc(C)o3)c2c1=O | 5.3 | i | x | -16.8 | 4.6 | -3.9 | 10.9 | -48.5
COc1ccc(NC(=O)c2ccc(NC3CC(=O)N(c4ccc(C)cc4C)C3=O)cc2)cc1 (stereo not given) | 0.9 | i | -22.9 | -28.6 | 1.7 | 4.1 | 0.2 | 5.7
